# High-throughput results (PubChem BioAssay)
# VDR inhibitor – blocks the human vitamin D receptor; P11473; VDR-SRC2-3 peptide fluorescence polarization, 2 h; Potency, µM, for inactives: max response, negative = inhibition, usual class: inhibitors; actives 0.93% (n = 400,000); AID 504847; active = well fitted inhibition curve with a large enough effect; inconclusive = small, poorly fitted or top-dose-only effect, or another doubt; inactive = no such curve, though single readings can be large or run the other way; note: series mostly up to about 120 µM
# Target sequence (P11473 whole entry, looked up): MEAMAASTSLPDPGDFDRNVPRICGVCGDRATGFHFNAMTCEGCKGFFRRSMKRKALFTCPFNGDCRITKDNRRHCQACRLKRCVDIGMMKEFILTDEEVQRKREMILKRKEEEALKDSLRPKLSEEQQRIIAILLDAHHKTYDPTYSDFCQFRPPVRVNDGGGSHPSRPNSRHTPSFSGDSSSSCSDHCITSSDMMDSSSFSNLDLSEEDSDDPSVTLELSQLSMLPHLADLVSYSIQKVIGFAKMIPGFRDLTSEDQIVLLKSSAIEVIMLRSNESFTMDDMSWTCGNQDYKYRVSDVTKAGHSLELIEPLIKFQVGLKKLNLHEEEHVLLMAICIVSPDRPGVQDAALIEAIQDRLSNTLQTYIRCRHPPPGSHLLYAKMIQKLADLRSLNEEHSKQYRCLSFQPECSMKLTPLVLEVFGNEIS
#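 Compounds are added to VDR with labelled SRC2-3 coactivator peptide and held 2 h at room temperature. Inhibition of the VDR–peptide interaction is then read as a change in fluorescence polarization.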
# The depositor's hits bear a star; ? = inconclusive; & = joins results of further samples; [ ] = another dose, or the depositor's remark. % is set by controls: 0 for no effect and ±100 for the full control effect; potency is the fitted concentration of half-maximal effect. Not all compounds are listed (hit frequency here may not be typical).
SMILES,VDR inhibitor
O=S(=O)(c1ccc(S(=O)(=O)N2CCCC2)cc1)N1CCCCCC1,-9%
CCOC(=O)C1CCN(C(=O)C2CCN(c3nn4c(=O)cc(C)nc4s3)CC2)CC1,-13%
COCCN(Cc1cccs1)S(=O)(=O)c1csc(C(N)=O)c1,0%
COc1cccc(NC(=O)CN(c2ccc3c(c2)OCO3)S(C)(=O)=O)c1,-10%
CCOc1ccc(S(=O)(=O)N(CC(=O)NCCSCc2ccc(C)cc2)c2ccccc2)cc1,8%
Cc1cc(=O)oc2c(C)c(OCC(=O)N3CCN(C(=O)C4COc5ccccc5O4)CC3)ccc12 (centres undefined),19%
COc1ccc(/C=C/C(=O)Nc2cc(-c3nc4ccccc4o3)ccc2OC)cc1,-11%
Clc1ccccc1/C=C/c1nc(-c2ccccn2)no1,-21%
CCOc1ccc(NC(=O)CCC(=O)N2CC(C)Oc3ccc(C)cc32)cc1 (centres undefined),9%
CCc1ccccc1-n1nnnc1-c1cnccc1C(F)(F)F,-5%
CCOc1ccc(C(=O)CN2CCN(S(=O)(=O)c3ccc(Br)cc3)CC2)cc1,?
C=C(C)CN(CC)C(=O)CCc1nnc(CCc2c[nH]c3ccccc23)o1,3%
CC(C)(C)OC(=O)N1CCCC(C(=O)Nc2cccc(C(=O)NCCCCc3ccccc3)c2)C1 (centres undefined),-3%
Cc1ccccc1Nc1nnc(-c2ccc(C)c(S(=O)(=O)NCC3CCCO3)c2)c2ccccc12 (centres undefined),-4%
CCc1cc2c(COC(=O)c3cccc(S(C)(=O)=O)c3)cc(=O)oc2cc1O,7%
Cc1cc(-c2ccccc2)nc(SCc2ccc(C(=O)O)cc2)n1,7%
O=C(N/C(=C\c1ccco1)C(=O)N1CCC(O)CC1)c1ccccc1,-8%
Cc1ccc(Cl)c(NC(=O)COC(=O)CNS(=O)(=O)/C=C/c2ccccc2)c1Cl,30%[activator]
O=C(O)c1sc(Nc2ccccc2)nc1-c1ccccc1,-4%
CCN(CC)CCCn1c2c(c(SCC(=O)Nc3cc(OC)cc(OC)c3)nc1=O)CCC2,-8%
C/C(CC(=O)Nc1ccc(Cl)cc1Cl)=N\NC(N)=S,-24%
Cc1c(N2C(=O)c3cccc4cccc(c34)C2=O)c(=O)n(-c2ccccc2)n1C,4%
Cc1ccc(-n2c(=S)[nH]c3nc4c(cc3c2=O)COC(C)(C)C4)cc1,-5%
CC(C)c1ccc(OCCCCCN2CCOCC2)cc1,-6%
COc1ccc(C2CC(C(F)(F)F)n3ncc(C(=O)O)c3N2)cc1OC (centres undefined),-2%
CCCN1CCN(C(=O)Cn2nc(C)n3c(cc4sccc43)c2=O)CC1,2%
N#Cc1ccc(C2=CC(=O)C[C@H](c3ccc4c(c3)OCO4)C2)cc1,-29%
Cc1ccc(N2CCN(C(=O)Nc3cccc([N+](=O)[O-])c3)CC2C)cc1 (centres undefined),-1%
COc1ccc(Cn2nnnc2C(c2ccccn2)N2CCN(c3cc(Cl)ccc3C)CC2)cc1 (centres undefined),-5%
Cc1nn2cc(-c3ccccc3)nc2[nH]c1=O,-9%
COc1cccc(/C(C)=N/NC(=O)c2cc(-c3cccnc3)nc3ccccc23)c1,-10%
S=C(NCCOCCOCCNC(=S)Nc1ccccc1)Nc1ccccc1,1%
Cc1ccccc1NC(=O)Cn1c(=O)n(-c2ccc(CC(=O)NCC3CCCO3)cc2)c(=O)c2ccccc21 (centres undefined),9%&-11%
Cc1ccc(S(=O)(=O)n2ccnc2)cc1C,-25%
COc1ccc(-n2nc(C(=O)NCC(=O)N3CCOCC3)c3ccccc3c2=O)c(OC)c1,-11%
CCc1ccccc1NC(=O)CCc1c(C)nn(-c2ccc(N3CCOCC3)nn2)c1C,-12%&-3%

# Arranged by the number under VDR inhibitor (largest number first): three of the compounds above.
SMILES,VDR inhibitor
COc1ccc(C2CC(C(F)(F)F)n3ncc(C(=O)O)c3N2)cc1OC (centres undefined),-2%
Cc1nn2cc(-c3ccccc3)nc2[nH]c1=O,-9%
COc1ccc(-n2nc(C(=O)NCC(=O)N3CCOCC3)c3ccccc3c2=O)c(OC)c1,-11%

# Continued.
SMILES,VDR inhibitor
CCn1c(C)c(C)c2cc(C(=O)NCc3cccc(C)c3)ccc21,13%
Cc1ccc(NC(=O)C2COc3ccccc3O2)c(C)c1 (centres undefined),-15%
OCCC1CN(CC2CCCCC2)CCN1CC1CCCCC1 (centres undefined),-8%
Cc1cc(C)n(-c2nc3ccccc3n3cnnc23)n1,14%
CCc1ccccc1NC(=O)c1cc2c(Cl)nc3ccccc3c2s1,-3%
O=C(NCC1COc2ccccc2O1)c1cccc(S(=O)(=O)N2CCOCC2)c1 (centres undefined),-11%
CC(C)CC1NC(=O)N(CC(=O)N2CCN(S(=O)(=O)c3ccccc3)CC2)C1=O (centres undefined),13%
O=C(CCc1ccccc1)NC(=S)Nc1cccc(Br)c1,3%
Cc1ccc(N2CC(NC(=O)CCc3ccccc3)CC2=O)cc1C (centres undefined),0%
CCCNC(=O)Nc1ccc2c(c1)nc(C)n2C,-8%
Cc1ccc(OCC(=O)Nc2ccc(O)c(-c3nc4ccccc4o3)c2)cc1,3%
COc1ccc2c(c1)CCc1c(C(=O)Nc3c(C)nn(Cc4ccccc4Cl)c3C)noc1-2,-2%
CCN(CC)CCCNC(=O)c1nn(C)c2c1CSc1ccccc1-2,9%
COC(=O)N1CCCc2cc(S(=O)(=O)N3CCN(c4ccccc4)CC3)ccc21,-5%
CCCc1[nH]nc2c1C(c1cccnc1)C(C#N)=C(N)O2 (centres undefined),14%
c1ccc(CC2CCN(c3ncnc4sccc34)CC2)cc1,-4%
NC(=O)C1CCN(c2nc(-c3ccc4occc(=O)c4c3)cs2)CC1,-21%
CC(C)CCN1NC2(CCCC(C)C2)NC1=S (centres undefined),1%
CC(C)Cn1c(-c2ccc(Cl)cc2)cnc1SCC(=O)N1CCOCC1,6%
O=C(CNC(=O)OCc1ccccc1)NC1CCCCCC1,-8%
CS(=O)(=O)N(CC(=O)N1CCc2ccccc2C1)c1cccc(Br)c1,-20%
COc1ccccc1NC(=O)c1ncoc1-c1ccco1,5%
CC1O[C@@H](OC2C(O)C(C)O[C@H](OC(=O)[C@]34CCC(C)(C)C[C@H]3C3=CCC5[C@@]6(C)CC(O)C(O[C@@H]7OC(CO)C(O)[C@@H](O)[C@@H]7O)[C@@](C)(C(=O)O)C6CC[C@@]5(C)[C@]3(CO)CC4)C2O[C@H]2OC(C)[C@@H](O[C@@H]3OCC(O[C@@H]4OC(CO)C(O)[C@H](O)C4O)[C@@H](O)[C@@H]3O)[C@H](O)C2O)C(O)C(O)C1O (some centres undefined),-27%
O=C(c1ccc2c(c1)N(Cc1ccc(Cl)cc1)C(=O)c1ccccc1S2=O)N1CCOCC1 (centres undefined),-8%

# 4 entries out of the list, arranged by molecular weight, ascending:
SMILES,VDR inhibitor
Clc1ccccc1/C=C/c1nc(-c2ccccn2)no1,-21%
Cc1ccc(N2CCN(C(=O)Nc3cccc([N+](=O)[O-])c3)CC2C)cc1 (centres undefined),-1%
COc1cccc(NC(=O)CN(c2ccc3c(c2)OCO3)S(C)(=O)=O)c1,-10%
CCN(CC)CCCn1c2c(c(SCC(=O)Nc3cc(OC)cc(OC)c3)nc1=O)CCC2,-8%

# More results
SMILES,VDR inhibitor
CCC(Oc1ccccc1)C(=O)N1CCN(CC)CC1 (centres undefined),11%
Nc1nc(C2CC2)c(Sc2sc(N)nc2C2CC2)s1,-26%
CCOC(=O)c1ccc(NC(=O)C2(c3ccc(OC)cc3)CCCC2)cc1,3%
CS(=O)(=O)N1CCC(C(=O)Nc2cc(Cl)c(Cl)cc2Cl)CC1,-3%
CC1Cc2ccccc2N1C(=S)NC(=O)c1ccc(Cl)cc1Cl (centres undefined),-7%
Cc1cc(=O)[nH]c2c(C)cc(S(=O)(=O)Nc3ccc(O)cc3)cc12,-2%
COc1ccccc1C(=O)Nc1ccc(C(=O)OCc2cc(=O)n3nc(C)sc3n2)cc1,6%
O=C(O)CCC(=O)Nc1ccc(N2CCCCCC2)cc1,?
COC(=O)c1ccccc1N1CCS(=O)(=O)CC1,-7%
CC(Sc1nc2c(c(=O)[nH]1)CCCC2)C(=O)Nc1ccc(S(N)(=O)=O)cc1 (centres undefined),3%
Cc1cc(C)cc(NC(=O)Nn2cnnc2)c1,-10%
COCCn1c(SCC(=O)Nc2nnc(C)s2)nnc1-c1cc2ccccc2cc1O,16%
Cn1c(=O)[nH]c(=O)c2c1nc(CN1CCOCC1)n2CCCc1ccccc1,-10%
O=C(O)CCc1nc2cc3ccccc3cc2[nH]1,6%
N#CCCN(C(=O)COC(=O)c1ccc(S(=O)(=O)N2CCCCCC2)cc1)c1ccccc1,-26%
Cc1ccc(C)c(N2CCN(CCCNC(=O)Nc3ccc(Cl)cc3)CC2)c1,-18%
Cc1ccc(C)n1-c1nnc(N2CCCC(C(=O)NCc3cccc(Cl)c3)C2)s1 (centres undefined),11%
CC12CCC(=O)N1C(C(=O)NCCN1C(=O)S/C(=C\c3ccc(OC(F)F)cc3)C1=O)CS2 (centres undefined),-7%
Cc1cccc(-n2c(=O)c3c(c4cc(C)ccc4n3C)n(C)c2=O)c1,-2%
O=C1COc2ccc(C(=O)CSc3nnc(NCc4ccccc4)s3)cc2N1,-11%
CCCC(C(=O)NCC1CCCO1)N(Cc1ccccc1)C(=O)CNS(=O)(=O)c1ccccc1 (centres undefined),5%
CN(c1ccccc1)S(=O)(=O)c1ccc(Cl)c(C(=O)NCCc2c[nH]c3ccccc23)c1,-5%
O=C(Nc1cc(F)ccc1F)c1ccc(CN2CC(=O)N3CCCCC3C2=O)cc1 (centres undefined),5%
O=C(OCC(=O)c1ccc[nH]1)c1ccc2ccccc2n1,-11%
CC(O)[C@H]1CN=C(N)N1CCCCC1CCCCC1 (some centres undefined),-15%
CCOC(=O)CN1C(=O)N[C@@H](CCc2ccccc2)[C@H](C(C)=O)[C@H]1C,-10%
CCn1c2ccccc2c2cc(NC(=O)COc3ccc(C)c(C)c3)ccc21,?
O=C(NCc1ccc(Cl)cc1)C1CCN(c2ncnc3c2nc2n3CCCCC2)CC1,4%
CC(C)c1ccccc1OCCNC(=O)c1cccnc1,-1%
O=C(CSc1nnnn1C1CC1)N1CCN(c2ccccc2F)CC1,0%
COCCn1c(=S)[nH]c2cc(C(=O)NC(C)C)ccc2c1=O,-17%
CC(=O)Nc1nc(=O)c2ccccc2s1,?
CCOc1ccc(/C=C/C(=O)c2cccs2)cc1,22µM*
CCC(=O)Nc1c(S(=O)(=O)c2ccccc2)c2nc3ccccc3nc2n1C(C)c1ccccc1 (centres undefined),-13%
O=C(O)[C@H](Cc1ccccc1)NC(=O)N1CCCCCC1,0%
Cc1ccc(Cl)cc1NC(=O)c1oc2c(c1C)-c1[nH]ncc1CC2,5%

# Reformatted as tab-separated lines: 3 of the compounds above
molecule	VDR inhibitor
CC(C)CCN1NC2(CCCC(C)C2)NC1=S (centres undefined)	1%
Cc1ccc(OCC(=O)Nc2ccc(O)c(-c3nc4ccccc4o3)c2)cc1	3%
Cc1ccc(N2CCN(C(=O)Nc3cccc([N+](=O)[O-])c3)CC2C)cc1 (centres undefined)	-1%

# Remaining list, next part
SMILES,VDR inhibitor
CCCn1c(SCc2nc(-c3cccs3)no2)nnc1-c1ccncc1,-7%
CCOc1ccc(CC(=O)Nc2c3c(nn2C(C)(C)C)CS(=O)(=O)C3)cc1,-10%
O=C(CN1CCCCCC1)Nc1ccccc1OC(F)F,-12%
Cc1cc2cc(C)c3nnc(SCC(=O)N4CCN(C(=O)c5ccco5)CC4)n3c2cc1C,8%
CCC(Sc1nncn1C)C(=O)Nc1cc(C)on1 (centres undefined),8%
O=C(c1ccc(Br)cc1)c1cn[nH]c1-c1ccccc1O,-11%
CN(C)C(=O)CSc1n[nH]c(=O)[nH]c1=O,6%
CCOC(=O)c1c(N)nn(C(=O)CC)c1-c1ccccc1,-5%
CCCOC(=O)C1C2C=CC3(CN(c4cccc(Cl)c4)C(=O)C13)O2 (centres undefined),-19%
COc1ccc(OCC(=O)NC(=S)N2CCCc3ccccc32)cc1,?
O=C(NCC(=O)N(Cc1cccs1)C(C(=O)NC1CCCCC1)c1cccnc1)c1ccco1 (centres undefined),-1%
CCCOCc1ccc(O)c2ncccc12,-1%

# VDR inhibitor, what is marked active above
SMILES,VDR inhibitor
CCOc1ccc(/C=C/C(=O)c2cccs2)cc1,22µM*

# (continued)
SMILES,VDR inhibitor
O=C(NCC(c1ccco1)N1CCc2ccccc2C1)c1ccc(Br)cc1 (centres undefined),-8%
O=C(COc1ncnc2sccc12)N1CCc2ccccc2C1,27%
COC(=O)Nc1ncc(CN2CCc3ccccc3C2)s1,1%
CCc1nnc(NC(=O)CSc2nc3cc4c(cc3cc2CC)OCCO4)s1,4%
COc1ccc(C(=O)Nc2cc(OC)c(Cl)cc2OC)cc1,?
CCCCOc1ccccc1C1CC(=O)Nc2cc(C)c(C)cc21 (centres undefined),4%
C/C(=N\NC(=O)c1ccc(NS(=O)(=O)c2cccs2)cc1)c1ccc(Cl)cc1,-11%
CCc1nnc(NC(=O)c2cccc(S(=O)(=O)N3CCN(C(C)=O)CC3)c2)s1,-11%
COCCN(C(=O)COC(=O)CCc1nc2ccccc2s1)c1c(N)n(Cc2ccccc2)c(=O)[nH]c1=O,-9%
COc1ccc(NC(=S)NCCSc2ccc(Cl)cc2)c(OC)c1,-4%
Cc1cccc(NC(=O)NNC(=O)c2ccc3ccccc3c2O)c1,-13%
CCn1c2ccccc2c2nnc(SCC(=O)NC(CC(C)C)C(=O)OC)nc21 (centres undefined),-2%
Cc1ccc(N2CCN(S(=O)(=O)c3cc(C(=O)Nc4cc(Cl)cc(Cl)c4)ccc3F)CC2C)cc1 (centres undefined),1%
O=C(CSc1nc2ccccc2[nH]1)N=Nc1c(O)[nH]c2ccccc12,?
